Compound activity (PubChem BioAssay)
PABP FP inh – PABP-poly(A) binding inhibition; P11940; PABP-poly(A) RNA binding, fluorescence polarization; inhibition, % at 35 µM; hit rate 1% among 290,000; AID 2014;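 active = 50% or more with normal probe brightness, or confirmed in later tests; inconclusive = above 50% with abnormal brightness, or retests that disagree; inactive = below 50% or failed in later tests; about a fifth of its hits are not listed in these tables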;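 also: calls also rest on retests at 20 µM and on dose response follow-up; controls were probe without protein and protein plus probe with vehicle; some compounds called inactive have numbers as strong as hits; many hits fall short of the cut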
Target sequence (P11940 whole entry, looked up): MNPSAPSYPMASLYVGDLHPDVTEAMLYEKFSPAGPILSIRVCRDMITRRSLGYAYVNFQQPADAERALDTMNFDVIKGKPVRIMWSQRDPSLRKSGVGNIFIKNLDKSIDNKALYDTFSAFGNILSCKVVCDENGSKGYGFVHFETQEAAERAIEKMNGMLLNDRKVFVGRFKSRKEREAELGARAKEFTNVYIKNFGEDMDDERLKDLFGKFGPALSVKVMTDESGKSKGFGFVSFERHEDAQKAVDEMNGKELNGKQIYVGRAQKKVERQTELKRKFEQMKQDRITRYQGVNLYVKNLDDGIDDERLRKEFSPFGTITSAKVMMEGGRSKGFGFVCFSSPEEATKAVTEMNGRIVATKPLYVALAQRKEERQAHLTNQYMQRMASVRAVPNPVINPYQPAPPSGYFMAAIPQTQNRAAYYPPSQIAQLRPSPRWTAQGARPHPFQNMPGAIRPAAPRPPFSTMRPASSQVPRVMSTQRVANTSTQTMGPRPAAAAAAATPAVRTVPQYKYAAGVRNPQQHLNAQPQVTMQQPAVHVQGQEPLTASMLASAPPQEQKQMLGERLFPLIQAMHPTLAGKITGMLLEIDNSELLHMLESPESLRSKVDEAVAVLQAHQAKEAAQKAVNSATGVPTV
UUG fidelity – yeast start codon fidelity modulation. hit rate 0.13% among 350,000. activity score, % at 18.7 µM. S. cerevisiae UUG-firefly luciferase reporter, luminescence/redox ratio. AID 602363;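 active = replicate mean at a twofold rise or more, about +100% in these data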;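 also: firefly luciferase made from a UUG start codon reports start codon fidelity; reporter light over untreated wells divided by growth signal over untreated wells; some hits fall short of that in this replicate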
eIF4H inh – inhibitors of RNA binding by human eIF4H; Q15056; eIF4H fluorescence polarization binding assay; inhibition, % at 35 µM; hit rate 0.94% among 290,000;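 active = 50% or more with normal probe brightness, or confirmed in later tests; inconclusive = above 50% with abnormal brightness, or retests that disagree; inactive = below 50% or failed in later tests; about a fifth of its hits are not listed in these tables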;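 also: calls also rest on retests at 20 µM and on dose response follow-up; 0% = protein and probe with vehicle and 100% = probe without protein; strong numbers were not always called active; many hits fall short of the cut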
Rce1 inhib – blocks yeast Ras-converting enzyme. Q03530. yeast membranes, quenched prenylated peptide cleavage fluorescence. calls only. hit rate 0.27% among 290,000. AID 2563;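 active = fall in fluorescence gain of 50% or more versus controls, with final raw signal at or below 3038400; inconclusive = same 50% fall but final raw signal above 3038400; inactive = fall in fluorescence gain under 50%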;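 also: plate controls were neutral control wells for no effect and wells lacking membranes for full effect; tested at 10 µM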
Target sequence (Q03530 whole entry, looked up): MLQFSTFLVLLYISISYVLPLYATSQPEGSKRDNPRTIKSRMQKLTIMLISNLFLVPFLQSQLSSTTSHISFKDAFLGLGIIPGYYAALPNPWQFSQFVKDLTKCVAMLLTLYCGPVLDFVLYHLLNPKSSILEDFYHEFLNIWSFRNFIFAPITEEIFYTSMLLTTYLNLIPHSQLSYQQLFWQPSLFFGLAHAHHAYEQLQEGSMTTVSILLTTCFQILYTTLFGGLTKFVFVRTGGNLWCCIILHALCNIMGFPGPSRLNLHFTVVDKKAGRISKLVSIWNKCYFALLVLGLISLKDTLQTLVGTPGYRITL
CSC inhib – cancer stem cell inhibition; AID 2717; cancer stem cell-like cells viability, luminescence; inhibition, % at 7.5 µM; hit rate 1.1% among 300,000;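 active = mean at 75% or more and at least half the replicates too; inconclusive = mean and replicates disagree; tested in HMLE shEcad cells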;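 also: 0% = median of negative and 100% = median of positive control wells; the first replicate is given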
Env fusion inh – HIV envelope-mediated fusion inhibition; inhibition, % at 12.3 µM; HeLa-JRFL Env/CEM21 cell fusion, luciferase; hit rate 1.1% among 360,000;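 active = mean replicate inhibition score of at least 50 and every replicate individually at or above 50; inconclusive = only one of the two criteria met; inactive = mean below 50 and not all replicates reaching 50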;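 also: 0% = plate neutral controls and 100% = maraviroc near 300 nM; one replicate is shown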
MT1-MMP act inh – blocks activation of human MT1-MMP; HT1080 RFP-PRO-GFP cells, GFP/RFP ratio fluorescence, overnight; percent of plate control window, DMSO zero; AID 651647; GFP/RFP ratio change, % at 20 µM; hit rate 0.061% among 360,000;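 active = GFP/RFP ratio change of at least 30% with cell ATP level not reduced by more than half and red fluorescence within 50% of control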; also: strong numbers were not always called active
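Assay system – RFP-PRO-GFP reporter HT1080 cells · Compound dosing – single dose of 20 µM compound, 1% DMSO final · Incubation – overnight compound exposure at 37 °C · Measure – GFP/RFP fluorescence ratio · Benchmarks – DMSO wells and RFP-L50D-GFP cells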
eIF4H inh retest – also measured in eIF4H inh; calls as there; inhibition, %; compound at 20 µM; confirmation average;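 mean of two retest wells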
PABP FP inh retest – further read-out of PABP FP inh, marked with its call; inhibition, %; compound at 20 µM; confirmation repeats;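 mean of two retest wells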
MT1-MMP act inh RFP – also measured in MT1-MMP act inh; calls as there; RFP signal change, %; measured here: RFP expression control read;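 0 = vehicle wells; hits needed this value within 50% of zero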
The depositor's hits bear a star; i = inactive; ? = inconclusive; · = no result given; & = joins results of further samples. Rows are unselected, and some 2.9% of all compounds hit somewhere here.

SMILES	PABP FP inh	UUG fidelity	eIF4H inh	Rce1 inhib	CSC inhib	Env fusion inh	MT1-MMP act inh	MT1-MMP act inh RFP	others
Cc1nn(-c2ccccc2)c(C)c1NC(=O)COC(=O)CC(C)c1ccccc1 (stereo unspecified)	·	·	·	i	10.6	-8.2	3.5	-4.4
COc1cc(/C=C/C(=O)O)ccc1OS(=O)(=O)c1c(C)cc(C)cc1C	·	-0.6	·	·	13.9	-2.4	-3.4	2.8
CCn1cc(C(=O)N2CCOCC2)c(=O)c2cc(S(=O)(=O)N(C)C3CCCCC3)ccc21	2.4	-4.6	-13.1	i	·	-16.4	-0.7	4.0
Cc1cc(Cl)ccc1Oc1ncnc2oc(-c3ccccc3)cc12	6.5	-9.2	12.1	i	21.0	·	-2.4	1.6
COc1ccc(CN=C2NC(=O)CC(C(=O)Nc3cc(C)cc(C)c3)S2)cc1 (stereo unspecified)	-2.6	-16.1	-3.1	i	-0.8	1.2	3.0	8.7
CCOC(=O)C1CCN(C(=O)c2ccc(CNS(=O)(=O)c3ccc(OC)cc3)cc2)CC1	0.8	·	-2.3	i	·	16.8	0.7	5.1
CC(Sc1nnc(N)s1)C(=O)NC1CCCCC1C (stereo unspecified)	·	-11.7	·	i	·	·	0.2	0.9
CN1CCN(c2ccc(S(=O)(=O)N3CCCCC3)cc2NC(=O)CSC(C)(C)C)CC1	·	-9.4	·	·	·	-14.0	-1.9	1.5
CC(=O)Nc1ccc(S(=O)(=O)Nc2cc(-c3ccccc3)nn2C)cc1	6.5	-16.8	-3.6	i	-4.4	5.9	-0.3	1.1
N#C/C(=C/c1ccc(N2CCOCC2)o1)C(=O)Nc1ccccc1	?	1.7	?	i	·	-81.5	-127.7	8.2
COc1ccccc1N1CCN(Cc2cc(=O)n3ccsc3n2)CC1	6.3	-10.6	1.6	i	·	·	-1.2	7.8
Cc1cc(N2CCOCC2)nc2ccc(NC(=S)NCCN(C)C)cc12	1.7	6.1	-6.4	i	9.9	-4.0	4.4	3.5
COc1ccc(N2CCN(c3ccc4nnc(CCC(=O)Nc5ccc(C)cc5)n4n3)CC2)cc1	-4.6	-4.8	-19.0	i	-9.1	-42.7	2.6	-4.1
O=C(CNC(=O)c1cc(Cl)cc([N+](=O)[O-])c1)NC1CC1	·	-10.8	·	·	13.2	22.9	1.0	-1.5
O=C(NC(=S)Nc1cc([N+](=O)[O-])ccc1O)c1cccnc1	2.4	·	6.8	i	7.6	-25.1	2.0	-3.6
NC(=O)COC(=O)c1cccc2c1-c1ccccc1C2=O	52.7*	-8.9	?	i	0.9	-9.1	4.2	1.2	PABP FP inh retest=99.8*
COc1ccc(C2C3=C(CCCC3=O)N(CC(=O)O)C3=C2C(=O)CCC3)cc1Br	·	-10.8	·	·	·	2.7	-4.5	2.7
Cc1cc(C=O)sc1[B-](F)(F)F	·	-6.2	·	·	·	-10.8	-3.4	3.0
COc1ccccc1N(CC(O)COc1ccc(C)cc1)S(=O)(=O)c1ccccc1 (stereo unspecified)	-5.8	·	6.5	i	1.3	10.2	-2.1	-6.7
Cc1onc(-c2ccccc2Cl)c1C(=O)NNC(=O)c1nn(C)cc1Cl	-9.4	·	1.0	i	1.9	3.5	-0.8	4.8
Cc1cc2nnc(SCc3ccccc3)n2c(N)n1	-15.3	-23.0	-4.1	i	·	-49.2	0.0	-0.4
CCOc1ccc(NC(=O)C2C(C(=O)O)C3(Cl)C(Cl)=C(Cl)C2(Cl)C3(Cl)Cl)cc1 (stereo unspecified)	2.5	·	-4.1	i	-2.2	9.2	-2.9	4.0
COc1ccc(NC(=O)N2CCN(C(=O)C(Cc3ccc(F)cc3)NC(C)=O)CC2)cc1 (stereo unspecified)	4.7	10.1	-16.3	i	-2.5	1.7	4.5	4.7
Cc1csc(NC(=O)CSc2nc(=O)n(CCCN(C)C)c3c2CCC3)n1	·	·	·	i	-3.5	-6.1	0.4	2.3
CCN1C(=O)/C(=C/N(C(C)=O)c2ccccc2)N(c2ccccc2)C1=S	-2.3	-9.4	3.3	i	6.9	·	-2.2	3.9

Among those listed so far, 2 have a furan ring, fused or not:
SMILES	PABP FP inh	UUG fidelity	eIF4H inh	Rce1 inhib	CSC inhib	Env fusion inh	MT1-MMP act inh	MT1-MMP act inh RFP	others
Cc1cc(Cl)ccc1Oc1ncnc2oc(-c3ccccc3)cc12	6.5	-9.2	12.1	i	21.0	·	-2.4	1.6
N#C/C(=C/c1ccc(N2CCOCC2)o1)C(=O)Nc1ccccc1	?	1.7	?	i	·	-81.5	-127.7	8.2

Continued:
SMILES	PABP FP inh	UUG fidelity	eIF4H inh	Rce1 inhib	CSC inhib	Env fusion inh	MT1-MMP act inh	MT1-MMP act inh RFP	others
CCN(CCCNC(=O)C1CCN(S(=O)(=O)N2CCC3(CC2)OCCO3)CC1)c1ccccc1	-1.1	-17.9	-9.7	i	0.9	·	-3.0	-1.7
COc1ccc(S(=O)(=O)N2CCN(CC(=O)N3c4ccccc4CC3C)CC2)cc1OC (stereo unspecified)	·	7.5	·	·	·	1.9	4.9	0.6
Oc1cccc(/C=N/NC(=S)Nc2cccnc2)c1O	14.4	·	67.4	i	73.8	-62.3	-1.0	-7.8	eIF4H inh retest=-3.7;PABP FP inh retest=10.0
Cc1ccc(S(=O)(=O)N2CCN(Cc3cccc(F)c3)CC2)cc1	·	1.7	·	i	2.9	14.1	-2.8	-2.4
NNC(=O)CNC(=O)CNS(=O)(=O)c1ccccc1	-0.1	·	0.0	i	8.0	-15.1	-6.0	0.4
O=C(CSc1nnc(CNC(=O)c2c(F)cccc2F)o1)NCc1ccc(F)cc1	-11.6	-11.3	-3.9	i	6.3	-19.0	-4.4	-1.9
CC(=O)N1CCc2cc(S(=O)(=O)CCC(=O)Nc3ccc4c(c3)OCCO4)ccc21	26.1	-13.2	8.2	i	-9.5	-27.3	-3.2	3.0
CCOc1ccc(NC(=O)C2CC(=O)N(c3ccc4c(c3)OCCO4)C2)cc1OCC (stereo unspecified)	·	0.3	·	i	-7.2	-37.7	2.4	-2.4
O=C(/C=C/c1ccccc1)N1CCN(c2cccc(Cl)n2)CC1	3.3	-8.3	-4.6	i	-0.5	-5.1	-2.8	-2.4
CC1=C(C(=O)OC2CCCCC2)C(c2ccc(N(C)C)cc2)NC(=O)N1 (stereo unspecified)	-8.2	7.7	-10.8	i	-15.0	32.2	-5.7	1.1
Cc1noc(C)c1C(=O)N1CCN(c2ncccn2)CC1	4.9	-22.6	4.9	i	13.1	0.1	3.3	4.6
COc1ccc(-c2cn3c(C)c(C(=O)N4CCN(c5ccccc5)CC4)sc3n2)cc1	·	-6.7	·	·	·	31.0	-3.4	-7.8
O=c1[nH]c(CSc2nnc(-c3cccnc3)n2C2CCCCC2)nc2ccccc12	2.5	-18.3	-5.2	i	-7.6	-7.6	2.5	3.0
COc1ccc(CN2C(=O)c3cccnc3C2Nc2cc(Cl)ccc2OC)cc1 (stereo unspecified)	-15.1	-5.2	-0.8	i	?	31.4	-0.1	4.3
Cc1ccc(Nc2nnc(SC(C)C(=O)Nc3c(C)n(C)n(-c4ccccc4)c3=O)s2)cc1 (stereo unspecified)	-8.1	·	-9.9	i	-16.6	-16.0	-0.1	-4.1
COc1cccc(NC(=S)N(CCc2c(C)[nH]c3ccccc23)Cc2ccco2)c1	4.0	-30.8	-3.1	i	10.7	-17.7	0.9	-5.5
COC(=O)c1cc(Br)c(=O)n(Cc2ccc(C(=O)O)cc2)c1	-8.5	-18.9	-5.3	i	·	·	-0.4	5.7
CC(C)CNC(=O)COc1ccccc1[N+](=O)[O-]	29.0	-0.2	6.5	i	-14.5	-30.5	3.1	4.6
COc1ccccc1CN(C)CC(=O)Nc1ccccc1-c1ccccc1	-4.2	·	1.8	i	25.6	12.0	-3.4	-9.5
CCOc1ccc(CCNc2nc3ccccc3n3c(C)nnc23)cc1OCC	8.6	-13.0	-3.4	i	-8.0	6.6	12.6	3.6
CN(C)C(=O)c1ccc(NC(=O)COc2ccc([N+](=O)[O-])cc2)cc1	-6.6	·	-8.4	i	-9.7	3.7	-0.4	1.0
Cc1nn(CCO)c2ncc(C(=O)c3cc(F)ccc3O)cc12	-6.9	0.1	-7.1	i	13.1	-0.8	1.4	2.7
CCCCNC(=O)c1sc2ncnc(N3CCc4ccccc4C3)c2c1C	-1.9	-0.6	6.1	i	19.6	·	3.8	-1.5
Cc1c(C(=O)N2CCCCC2CCN2CCCC2=O)oc2c(F)cccc12 (stereo unspecified)	3.6	12.3	-1.7	i	7.3	-9.1	1.1	0.2
COc1ccc(-c2cnc3c(c2)C(=O)N([C@H](C)CO)C[C@@H](C)[C@H](CN(C)Cc2ccccc2)O3)cc1	·	-11.2&16.2&21.4	·	·	·	-3.3	1.6	0.6
SMILES	PABP FP inh	UUG fidelity	eIF4H inh	Rce1 inhib	CSC inhib	Env fusion inh	MT1-MMP act inh	MT1-MMP act inh RFP	others
Cc1ccc(S(=O)(=O)n2nc(-c3ccco3)nc2SCc2ccccc2)cc1	-1.9	-2.1	5.2	i	-6.5	·	-9.8	-6.2
O=C(c1ccccc1)n1nc(-c2ccccc2)nc1NCc1ccco1	1.0	-2.2	-8.4	i	3.7	9.5	1.5	-1.5
CCCCc1cc(=O)oc2c(C)c(OCC(=O)N3C[C@H]4C[C@@H](C3)c3cccc(=O)n3C4)ccc12	-4.2	-15.1	5.0	i	9.7	·	2.7	-0.5
CC(=O)C1=C(c2ccc(Br)cc2)C(=O)c2ccccc2C1=O	-10.0	-30.7	-3.6	i	113.9*	140.9*	-136.4	-22.2
COc1cccc(CC(CC(=O)O)C(=O)Nc2cc(C)ccc2C)c1 (stereo unspecified)	5.3	14.1	1.1	i	-2.9	4.3	-2.2	0.0
CCc1ccc2c(CN3CCN(S(=O)(=O)c4ccccc4F)CC3)cc(=O)oc2c1	·	21.9	·	·	-4.9	13.6	16.9	-17.7
COc1ccc(C#Cc2c(C=O)n(C)c3ccccc23)cc1	·	-0.7	·	·	1.3	2.9	-0.5	5.4
O=C(CN1CCCCC1)Nc1ccc(S(=O)(=O)NC2CCCCC2)cc1	1.6	-26.0	-6.3	i	·	·	1.5	-5.6
CNC(=O)COC(=O)c1cccnc1SC	-11.1	-5.1	-2.0	i	-6.3	·	-0.1	1.9
CCn1c2ccc(CC(=O)O)cc2c2cc(CC(=O)O)ccc21	9.6	-17.8	9.1	i	-0.1	-6.7	5.9	3.7
CCC(=O)N/C(N)=N/c1nc(C)c2cc(C)c(C)cc2n1	3.2	-13.9	3.5	i	44.0	-14.3	-5.8	-4.5
O=C(Nc1nnc(SCc2ccc(F)cc2)s1)c1ccccn1	18.8	·	21.9	i	·	32.7	13.6	2.8
Cc1cccc(NC(=O)c2nc[nH]c2C(=O)NCc2ccccc2)c1	·	-30.2	·	·	19.1	-25.1	1.5	-3.1
CC(=O)c1sc(NC(=O)c2c(F)cccc2F)nc1-c1ccccc1	-1.3	-18.6	-3.5	i	13.0	2.9	2.6	3.0
O=C(NC1CCCC1)C1CCN(C(=O)c2ccc(Cl)cc2)CC1	8.1	-20.8	-6.3	i	-11.0	1.1	-0.4	0.9
COC(=O)Cn1c(=O)c2c(nc3n2CCCN3CCc2ccc(OC)c(OC)c2)n(C)c1=O	-5.7	6.9	-11.2	i	-5.3	12.4	0.1	-6.3
Cc1ccc(-c2c(C(=O)N/N=C/c3ccc(OC(C)C)cc3)nnn2-c2nonc2N)cc1	·	-15.3	·	i	13.1	0.0	0.2	-1.0
S=C(NCCN1CCOCC1)Nc1ccc(Br)cc1	3.8	·	-5.2	i	-5.1	·	1.3	1.0
